# NPYLR7 agonist: mosquito NPYLR7 agonism; HEK293T NPYLR7/Galpha15, GCaMP6s calcium fluorescence; activation, % at 10 µM; 0.15% of 270,000 active; in the data active = activation above about 40%;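 also: 0% = vehicle and 100% = reference agonist at the receptor; some compounds past the cut are filed as inactive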
# NPYLR7 agonist max-min: further read-out of NPYLR7 agonist, marked with its call; activation, %; measured here: Max-Min RFU normalised activation; some inactives read as strong as hits;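 span of the calcium signal over five minutes; 0% = vehicle and 100% = native peptide agonist; compound fluorescence can raise it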
# * hit, by the source's call; & = joins results of further samples. Some of the compounds tested; rates above refer to the full screens.
SMILES,NPYLR7 agonist,NPYLR7 agonist max-min
O=C(N=Nc1c(O)[nH]c2ccc(F)cc12)c1ccc(Cl)cc1,-1,-7
COCCOC(=O)C1=C(C)NC(=O)NC1c1ccc(OC(F)F)c(OC)c1 (stereo not drawn),8,2
CCCCN(Cc1cccn1Cc1ccc(Br)cc1)C(=O)CN(C(C)C)S(=O)(=O)c1ccc(Br)cc1,-4,5
O=C(/C=C/c1ccccc1)N1CCN(C(C(=O)N2CCSCC2)C2CCCC2)CC1 (stereo not drawn),5,15
CC(C)(C)C(=O)NCC(=O)N1CCC(n2cccc2)CC1,10,9
Cc1ccc(Sc2ccc(C=C3C(=O)NC(=S)NC3=O)o2)cc1,-11,-14
CN(CCC1CCCCN1C)Cc1ccc(OCC(F)(F)F)nc1 (stereo not drawn),23,17
Cc1ccc(Nc2nc(N3CCN(c4ccc(F)cc4)CC3)nc3nccnc23)cc1C,2,4
CCC(CC)n1nc(C)cc1NC(=O)CC1CCOCC1,2,0
CCOC(=O)C1(Cc2cccc(Cl)c2)CCCN(C(=O)c2cc(C)nc(C)n2)C1 (stereo not drawn),3&-12,2&-17
Cc1ccc(-c2nc3cc(Cl)ccc3o2)cc1NC(=O)c1ccc([N+](=O)[O-])cc1,-6,-9
CSc1ccc(CN2CCC(CCC(=O)NCc3cccnc3)CC2)cc1,3,-1
O=C(CCC1CCCN(Cc2ccc3c(c2)OCCO3)C1)NCc1ccccc1Cl (stereo not drawn),3,2
CCCN(CC(=O)Nc1cc(C(C)(C)C)nn1-c1cccc(C)c1)C(=O)Nc1ccc(Cl)c(Cl)c1,14,8
CCC(CC)(CO)NCc1cccc(NC(C)=O)c1,-1,-3
C=CCN1CCN(c2nc3c(c(=O)[nH]c(=O)n3C)n2Cc2ccc(Cl)cc2Cl)CC1,-2,-8
O=C1NC(=O)C2(CCNCC2)N1,1,0
Cc1nc2sc3c(c2c2nncn12)CCC3,1,34
CC(=O)c1c(C(C)=O)c(C)n(-c2ccc3ncccc3c2)c1C,18,3
Nc1nnc(SCC(=O)c2cccc([N+](=O)[O-])c2)s1,14,11
Cc1cc(C)c(C)c(S(=O)(=O)N(C)C2CCS(=O)(=O)C2)c1C (stereo not drawn),-1,-3
COC(=O)c1cc([N+](=O)[O-])ccc1Cl,4,-1
CCCn1c(=O)c2c(nc3n2CC(C)=NN3CC(=O)C(C)(C)C)n(C)c1=O,1,7
COc1ccc(-c2nc(CS(=O)Cc3nnsc3Cl)cs2)c(OC)c1 (stereo not drawn),2,7
CCC1CN(Cc2ccccc2SC)CCN1C(C)C (stereo not drawn),-2,-13
CN(Cc1cn[nH]c1-c1ccc(F)cc1F)CC1Cc2ccccc2O1 (stereo not drawn),13&2,10&0
O=c1c(-c2cccs2)[n+]([O-])c2ccccc2n1OCc1ccccc1Cl,0,-2
CN(C)C(CNC(=O)c1cc(=O)c2cc(Cl)ccc2o1)c1ccccc1 (stereo not drawn),-5,9
CCOc1cc2c(cc1OCC)CN(c1c(C#N)c(=O)n(C)c(=O)n1C)CC2,7,8
N#CCCOC1(C#CCN2CCCC2)CCCCC1,8,6
O=C(c1n[nH]c(C2CC2)c1Cl)N1CCN(S(=O)(=O)c2ccccc2)CC1,6,-8
O=C(c1ccc2c(c1)OCCO2)N(Cc1cccnc1)c1nc2c(Cl)cccc2s1,-24,-9
C(=Cc1ccc2ccccc2n1)c1ccc(-n2ccnc2)cc1,7,8
CCOC(=O)n1ncc(C#N)c1N,4,3
O=C(CSc1ccccc1)NC1CC(=O)N(Cc2cccc(F)c2)C1 (stereo not drawn),-1,-1
CN(Cc1nc2ccccc2s1)S(=O)(=O)c1ccccc1C#N,4,1
Cn1cncc1-c1nccn1-c1ccccc1OCC1CCCO1 (stereo not drawn),-1,-1
CS(=O)(=O)Cc1cc(F)ccc1N,0,0
O=[N+]([O-])c1ccc(S(=O)(=O)NCC(c2cccnc2)N2CCc3ccccc3C2)cc1 (stereo not drawn),1,-4
O=C(OCc1cc(-c2ccc(F)cc2F)on1)c1ccc(=O)oc1,1,-1

# Laid out differently: 4 of the compounds above
smiles	NPYLR7 agonist	NPYLR7 agonist max-min
CCCn1c(=O)c2c(nc3n2CC(C)=NN3CC(=O)C(C)(C)C)n(C)c1=O	1	7
COc1ccc(-c2nc(CS(=O)Cc3nnsc3Cl)cs2)c(OC)c1 (stereo not drawn)	2	7
CCC1CN(Cc2ccccc2SC)CCN1C(C)C (stereo not drawn)	-2	-13
CN(Cc1cn[nH]c1-c1ccc(F)cc1F)CC1Cc2ccccc2O1 (stereo not drawn)	13&2	10&0

# Next section
SMILES,NPYLR7 agonist,NPYLR7 agonist max-min
c1ccc(CCNc2ccc3c(-c4ccccn4)noc3n2)nc1,7,4
C=CCn1c(SCC(=O)Nc2nc(-c3cccc([N+](=O)[O-])c3)cs2)nnc1-c1ccoc1C,-6,-9
CON(C)S(=O)(=O)c1ccc(NC(=O)N(C)CCC(C)C)cc1,0,3
CC1NCCN(c2ccc3c(c2)CCC3)C1=O (stereo not drawn),-4,-3
COc1ccc(/C=c2/s/c(=C\C(=O)C3CC3)[nH]c2=O)cc1,1,0
CCCCC(=O)N(Cc1nc2cc(C)ccc2o1)C1CCCCC1,-1,-3
CCOC(=O)CN(C(=O)c1cnc2ccccn12)C1CC1,7,7
N=C1C(Cc2ccccc2)SC(=S)C1c1ccccc1 (stereo not drawn),1,-5
CCC(NC(=O)c1c(C)nn(C)c1C)c1nc(C(F)(F)F)cs1 (stereo not drawn),1,-2
Cc1nc(NC(=O)CSc2nnc(-c3ccc(Cl)cc3)n2C)sc1C,-7,0
Cc1ccc(NC(=O)CSc2ncc(S(=O)(=O)c3ccc(N4CCCC4)cc3)c(=O)[nH]2)cc1C,1,-4
CCCN(Cc1c(CC)nn(-c2ccc(F)cc2)c1N1CCN(C(C)C)CC1)C(=O)Nc1cccc(OC)c1,12,21
COc1ccc(CN2C(=O)N(C)C3(CCN(Cc4nc(-c5ccccc5)cs4)CC3)C2=O)cc1,10,4
COc1cc(OC)c2c(c1)OC1(CCN(C(=O)OCCSc3ccc(C(F)(F)F)cn3)CC1)CC2=O,3,1
CCOc1ccc(C2c3cccn3CCCN2Cc2ccco2)cc1 (stereo not drawn),0,4
O=c1c([N+](=O)[O-])c(N2CCCCC2)c2ccccc2n1Cc1ccccc1,-5,-5
O=C(COC(=O)c1cccs1)c1ccc(Cl)cc1,4,2
CC(Cc1ccc2c(c1)OCO2)c1nccn1Cc1ccco1 (stereo not drawn),-1,-1
O=C(NCC1(c2ccc(F)cc2)CCCC1)C1CCN(C(=O)C2CC2)CC1,0,15
COc1cccc(CN2CCCN(C(=O)c3ccco3)CC2)c1O,7,3
O=C(CCc1cccnc1)N1CCOC(COCc2ccccc2F)C1 (stereo not drawn),20,23
O=C(C1CCC1)N1CCCC(N2CCN(c3ccc(F)cc3)CC2)C1 (stereo not drawn),3,6
Cc1nnc(C(C)N2CCCC2c2cccc(N(C)C)c2)o1 (stereo not drawn),-5,-4
CC(=O)O[C@@H](C)C(=O)N1CCN(C2c3ccccc3CCc3ccccc32)CC1,-1,6
COC(=O)c1ccc(-c2noc(CN3CCc4[nH]ncc4C3)n2)cc1,7,-1
Cc1ccc(CNC(=O)c2cc(NC(=O)C3CCCO3)c3c(c2)nc(C2CCC2)n3C)cc1 (stereo not drawn),18,9
CCOc1c(Br)cc(C=CC(=O)c2ccc(F)cc2)cc1OC,2,1
NC(=O)c1ccc(COC(=O)C2C3CC4CC(C3)CC2C4)cc1 (stereo not drawn),5,3
NC(=O)CSc1ncc(-c2ccc(Cl)c(Cl)c2)n1-c1ccccc1,1,7
Cc1cccc(OCC(=O)N2CCC(n3cnc4cc(C(F)(F)F)ccc43)CC2)c1C,9,18
CSc1nnc2c(n1)OC(c1ccc3c(c1)OCO3)Nc1ccccc1-2 (stereo not drawn),1,-1
O=C(O)[C@@]12CN(c3cnccn3)C[C@@H]1CN(C1CCCC1)C2,5,2
CNC(=O)CSc1nc(-c2ccccc2)c(NC(=O)c2ccc(F)c(F)c2)s1,-7,-13
Cc1ccc(C(=O)NC(C)c2ccc(S(C)(=O)=O)cc2)s1 (stereo not drawn),2,1
CCOC(=O)C(Cc1ccc(Cl)cc1)NC(=O)c1cccnc1Nc1cc(Cl)ccc1C (stereo not drawn),-23,-27
Cn1c(SCC(=O)c2ccc(C#N)cc2)nnc1-c1ccc(F)cc1,0,-6
Cc1ccc(Cl)c(NC(=O)N2CCN(c3ccc(NC(=O)c4ccco4)cn3)CC2)c1,-1,-5
CCCc1nc(C)sc1C(=O)NCC1CCCCC1,-26,-31
COc1ccc(C(=O)N2CCN(c3ccc(C)c(C)c3)C(=O)C2C)cc1 (stereo not drawn),2,3
CCCS(=O)(=O)N1CCN(c2ncnc3c2nnn3C)CC1,0,1
COC(=O)c1ccc(C(=O)NCCc2c[nH]c3ccccc23)cc1,2,-2
Nc1nc(CN2CCc3sccc3C2)nc2sc3c(c12)CCCC3,8,5
O=C1CN(CCc2cccs2)C2CS(=O)(=O)CC2N1c1cccc(Cl)c1 (stereo not drawn),-2,-4
Cc1cccc(-n2cc(CN3C[C@H](N(C)C)C[C@H]3CO)cn2)c1,5,4
O=S(=O)(c1ccc(F)cc1)N1CCC(CCc2ccc(-c3ccccc3)cc2)CC1,1,0
CCCN(CC(=O)Nc1cc(-c2ccccc2)nn1-c1ccc(Cl)cc1)S(=O)(=O)c1ccc(F)cc1,19,17
O=c1c(/C=C\c2nc3ccccc3c(=O)n2-c2ccccc2)coc2ccccc12,11,11
Cc1ccccc1C(=O)N1CCN(C(C(=O)NCCN2CCCCC2)C2CCCC2)CC1 (stereo not drawn),-8,-1
COCCN1CCCC[C@]2(C[C@H](C(=O)O)[C@H](c3ccco3)N2S(=O)(=O)c2cccs2)C1=O,1,9
COc1ccc(/C=C/C2=NC(=C\c3cccc(Cl)c3)/C(=O)O2)cc1,-1,-2
CCc1cc(N2CCN(CC(=O)N(C)C)CC2)n2ncnc2n1,-1,-5
O=C(NCCCn1nc(-c2ccccc2)ccc1=O)Nc1ccccc1C(F)(F)F,0,-1
CSc1nc2cc(Oc3ccc(Cl)c4ccccc34)c(Cl)cc2[nH]1,-7,-12
COC(=O)c1cc(OC)c(OC)cc1NC(=O)C1CCC1,0,-2
O=C(c1ccccc1F)N(Cc1nccn1Cc1ccccc1)CC1CC1,10,16
CC1c2ccsc2CCN1C(=O)Cc1csc(-c2ccsc2)n1 (stereo not drawn),4,2
Cc1nc(N2CCN(C)CC2)ncc1-c1cc(=O)[nH]c(N2CCN(c3ccccc3)CC2)n1,7,6
O=c1ccccn1CCCNS(=O)(=O)c1cccc(Cl)c1,-1,-2
CN(C)C(=O)CN1C(=O)NC2(CCCCC2)C1=O,-1,-2
O=C(NCc1ccco1)c1ccc2c(c1)C(=O)N(Cc1ccco1)C2=O,-9,-10

# Single records, as listed above. Order of screens: NPYLR7 agonist | NPYLR7 agonist max-min
# Profile of COCCN1CCCC[C@]2(C[C@H](C(=O)O)[C@H](c3ccco3)N2S(=O)(=O)c2cccs2)C1=O → 1 | 9
# Profile of CC1c2ccsc2CCN1C(=O)Cc1csc(-c2ccsc2)n1 (stereo not drawn) → 4 | 2
# Profile of Cc1nc(N2CCN(C)CC2)ncc1-c1cc(=O)[nH]c(N2CCN(c3ccccc3)CC2)n1 → 7 | 6
# Profile of CCCN(CC(=O)Nc1cc(-c2ccccc2)nn1-c1ccc(Cl)cc1)S(=O)(=O)c1ccc(F)cc1 → 19 | 17
# Profile of Nc1nc(CN2CCc3sccc3C2)nc2sc3c(c12)CCCC3 → 8 | 5

# Additional structures follow:
SMILES,NPYLR7 agonist,NPYLR7 agonist max-min
S=c1n(Cc2ccccc2)ccn1CN1CCN(c2ccccc2)CC1,5,3
Cc1cc(C(=O)N2CCCC(Nc3ccc(F)cc3)C2)c(C)o1 (stereo not drawn),2&2,-2&1
COc1ccc(CCN(C)S(=O)(=O)c2ccc(OC)c(N3CCN(C(=O)c4cc5ccccc5s4)CC3)c2)cc1OC,14,13
Cc1ccc(-n2cnnc2SC(C)C(=O)N(C)c2ccccc2)c(C)c1 (stereo not drawn),-4,-6
CCc1cccc(NC(=O)CCC(=O)N2CCC[C@H]2C(N)=O)c1,0,3
CCCCc1c(C)nc2nc(SC3CCOC3=O)nn2c1C (stereo not drawn),14,12
CC(C)(C)CN1CCCC2(CCN(C(=O)CCN3CCCCCC3=O)C2)C1 (stereo not drawn),-2,-5
Cc1ccc(-c2nccn2CCC2CCCN2C)o1 (stereo not drawn),-5,-8
CN(CC(N)=O)C(=O)c1ccc(-c2ccc(Br)cc2)s1,3,0
CCOC(=O)Cn1c(=O)c2c(nc3n2CC(C)CN3c2cccc(C)c2)n(C)c1=O (stereo not drawn),7,6
COc1cccc(NC(=O)NC(Cc2ccccc2)C(=O)Nc2nnc(-c3ccc4c(c3)OCO4)s2)c1 (stereo not drawn),27,29
CCn1cnnc1CCNc1ncnc2sc(C)c(C)c12,0,-11
Cc1ccccc1-n1c(SCc2ccc(C(=O)NCC(C)C)cc2)nnc1-c1ccncc1,8,17
Cc1nn(C)c(NC(=O)C2CCCC2)c1C#N,0,-2
CCC(C)C(NC(=O)Nc1cccc(Br)c1)C(=O)Nc1nnc(-c2cccc(OC)c2)s1 (stereo not drawn),16,26
O=S(=O)(NCc1ccccc1)N1CCCC1c1ccco1 (stereo not drawn),5,2
CN(C(=O)CCNC(=O)C(C)(C)C)c1ccccc1Oc1ccccc1,4,3
O=C(CSC(=S)N1CCCC1)NC(=O)NC12CC3CC(CC(C3)C1)C2,-3,-4
CCOC(=O)C1=C(C)N=c2s/c(=C\c3ccco3)c(=O)n2C1c1ccccc1F (stereo not drawn),-20,-19
O[C@H]1CN[C@H](c2nc(-c3cnccn3)no2)C1,-10,-14
